D2 potentiator – positive allosteric modulators of human D2 dopamine receptor; P14416; DiscoveRx D2 beta-arrestin cells, luminescence, 90 min; 100% = 57 uM dopamine signal; potentiation, % (concentration not given with the values); hit rate 0.23% among 360,000; active = potentiation of 50% or more; inconclusive = 30% to 50%; inactive = 30% or less;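 note: compound concentration not given in the record; tested on top of an EC20 dose of dopamine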
Target sequence (P14416 whole entry, looked up): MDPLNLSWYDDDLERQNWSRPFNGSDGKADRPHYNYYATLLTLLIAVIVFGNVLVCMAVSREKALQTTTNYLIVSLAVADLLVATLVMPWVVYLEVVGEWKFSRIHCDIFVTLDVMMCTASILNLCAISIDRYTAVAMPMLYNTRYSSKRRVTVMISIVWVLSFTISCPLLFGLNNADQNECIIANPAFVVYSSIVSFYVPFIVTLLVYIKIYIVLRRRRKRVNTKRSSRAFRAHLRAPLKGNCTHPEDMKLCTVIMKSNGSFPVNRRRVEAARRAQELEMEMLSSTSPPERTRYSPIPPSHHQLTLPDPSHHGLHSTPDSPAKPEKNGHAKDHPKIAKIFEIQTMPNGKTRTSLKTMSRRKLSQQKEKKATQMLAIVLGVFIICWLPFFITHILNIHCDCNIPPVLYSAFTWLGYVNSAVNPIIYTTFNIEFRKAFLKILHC
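PathHunter D2 cells, attached overnight at 37 deg C, received compound in DMSO plus dopamine at EC20 (50 nM final) for 90 min at 37 deg C. Beta-arrestin recruitment was read as luminescence after 1 h with detection reagent at ambient temperature.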
D2 ag – human D2 receptor agonism in beta-arrestin assay. P14416. activation, % (concentration not given with the values). DiscoveRx PathHunter D2 beta-arrestin, luminescence, 90 min; 100% = 57 uM dopamine signal. AID 624465. hit rate 0.084% among 360,000; in the data active = activation above about 40%; inconclusive = about 15% to 40%; inactive = below about 15%; note: compound concentration not given in the record; the text of the record calls up to 30% inactive
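Agonist mode: compounds alone added to overnight-plated D2 PathHunter cells for 90 min at 37 C, with 57 uM final dopamine (EC100) defining full response. Beta-arrestin recruitment detected by chemiluminescent reagent, read after 1 h at ambient temperature.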
PINK1 expr mod – modulators of PINK1 expression | Potency, µM (series often up to 76.6 µM), for the others: at the top dose activation (PINK1 increase), most hits filed as activators | PINK1 immunofluorescence, high-content cytometry, 24 h | AID 624263 | hit rate 0.2% among 410,000; active = well fitted activation curve with a large enough effect; inconclusive = small, poorly fitted or top-dose-only effect; inactive = flat fitted curve, though single readings scatter; cell line not stated here;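 note: potency is the fitted concentration of half-maximal effect; % of control where 0% means no effect; nearly all actives have a fitted effect of over 65% in size; a mitochondrial uncoupler was the plate control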
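PINK1 protein, normally rapidly degraded, was detected by immunofluorescence after 24 hour compound treatment of a stable cell line. Titration data (5 concentrations) came from laser-scanning cytometry, with CCCP-treated wells as controls.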
TRPV1 potentiator – enhances activation of the human vanilloid receptor TRPV1. TRPV1-expressing cells, Fluo-8 calcium influx, capsaicin EC20 potentiation; host cell line not named in the record; control for the full effect not named in the record. Q8NER1. potentiation, % at 8.33 µM. hit rate 0.02% among 320,000; active means potentiation above 80%; inconclusive means 30% to 80%; inactive means below 30%; note: 0% is about no effect
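Fluo-8 calcium influx in TRPV1-expressing cells, kinetic read (ex 480/em 520 nm). Compound added and read 3 min for agonist activity, followed by capsaicin at EC20 final and 2 min further read for enhancement.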
CtBP-E1A blk – blocks the CtBP interaction with E1A | AlphaScreen GST-E1A/His-CtBP binding, 1536-well; active compounds read low; control for the full effect not named in the record | activity change, % (concentration not given with the values) | hit rate 0.49% among 340,000; in the data active means activity change below about -65%; inconclusive means about -30% to -65%; inactive means above about -30%; note: % is set by controls: 0 for no effect and ±100 for the full control effect
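AlphaScreen with 125 nM GST-E1A and 125 nM His-CtBP (5X stocks) in Tris pH 8.0, 300 mM NaCl, BSA, Tween 20, TCEP. Compounds preincubated 2 h at 37 deg C, then glutathione donor/nickel acceptor beads added for 1 h at 37 deg C in dark.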
Six1-Eya2 blk – Six1/Eya2 interaction inhibition. Q15475+O00167. AlphaScreen GST-Six1/His-Eya2 binding, biochemical; active compounds read low; control for the full effect not named in the record. activity change, % (no concentration beside the values). hit rate 0.56% among 360,000; in the data active = activity change below about -65%; inconclusive = about -30% to -65%; inactive = above about -30%; note: % is set by controls: 0 for no effect and ±100 for the full control effect
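Compounds are tested against tagged Six1 and Eya2 proteins bridged by glutathione donor and nickel acceptor beads; after a one-hour incubation at 37 °C without light, AlphaScreen emission is recorded.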
Sfp PPTase inh – blocks B. subtilis Sfp PPTase activity; hit rate 3.5% among 310,000; Potency, µM, for inactives: max response, negative = inhibition, most hits filed as inhibitors; Biochemical Sfp PPTase activity, qHTS; AID 1490; Q9F4F7; active = well fitted inhibition curve with a large enough effect; inconclusive = small, poorly fitted or top-dose-only effect, or another doubt; inactive = no such curve, though single readings can be large or run the other way;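 note: the enzyme is Sfp with the accession as filed and its product quenches rhodamine fluorescence; potency is the fitted concentration of half-maximal effect; 0% = enzyme reaction without inhibitor and -100% = no enzyme wells; top concentration of the series not given in the record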
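Step 1, compound plus 15 nM Sfp-PPTase, 15 min, room temperature. Step 2, add rhodamine-CoA (5 uM) and BHQ-2-YbbR (12.5 uM). Step 3, read 525/598 nm fluorescence at 0 and 30 min.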
Numbers without * were called inactive; ? = inconclusive; · = no result given; & = joins results of further samples; [ ] = another dose, or the depositor's remark.

Start of the data: the first four records (preview)
SMILES | D2 potentiator | D2 ag | PINK1 expr mod | TRPV1 potentiator | CtBP-E1A blk | Six1-Eya2 blk | Sfp PPTase inh
CCCN(C(=O)CCNC(=O)Cn1cnc2ccccc2c1=O)c1cccc(C)c1 | -3 | 1.5 | 0.9%&0.8% | 5 | 1 | 14 | 13%
COc1cc(C(=O)Nc2ccc(OCC(=O)N3CCOCC3)cc2C)cc(OC)c1OC | 0 | -0.6 | -2.3% | -5 | 2 | 4 | 17%
COc1cc(C#N)ccc1OCC(=O)c1ccc2c(c1)OCCO2 | -9 | -4.2 | ? | 0 | -2 | -11 | -3%
COc1cc(F)ccc1-c1cc(C(=O)Nc2ccc(NC(C)=O)cc2)[nH]n1 | -6 | -1.6 | -0.7% | · | 0 | -2 | ·

Results, repeating the preview:
SMILES | D2 potentiator | D2 ag | PINK1 expr mod | TRPV1 potentiator | CtBP-E1A blk | Six1-Eya2 blk | Sfp PPTase inh
CCCN(C(=O)CCNC(=O)Cn1cnc2ccccc2c1=O)c1cccc(C)c1 | -3 | 1.5 | 0.9%&0.8% | 5 | 1 | 14 | 13%
COc1cc(C(=O)Nc2ccc(OCC(=O)N3CCOCC3)cc2C)cc(OC)c1OC | 0 | -0.6 | -2.3% | -5 | 2 | 4 | 17%
COc1cc(C#N)ccc1OCC(=O)c1ccc2c(c1)OCCO2 | -9 | -4.2 | ? | 0 | -2 | -11 | -3%
COc1cc(F)ccc1-c1cc(C(=O)Nc2ccc(NC(C)=O)cc2)[nH]n1 | -6 | -1.6 | -0.7% | · | 0 | -2 | ·
O=C(NCCCN=C1NS(=O)(=O)c2ccccc21)c1ccc(F)cc1 | -18 | -4.6 | -1.5% | 4 | -2 | 0 | 9%
CC(C)c1nnc(SCC(=O)NCCC2=CCCCC2)n1N | -4 | -5.7 | -3.0%[38.3 µM] | -10 | -6 | -7 | ?
COc1ccc(C2C3=C(COC3=O)Oc3cc4c(cc32)OCO4)cc1OC (stereo not drawn) | -9 | 3.2 | 6.3%&11% | · | -5 | 11 | ·
Cc1cncc(NCc2ccc3c(c2)OCO3)n1 | -2 | -2.9 | -0.2% | · | -4 | -6 | ·
FC(F)(F)c1nnc2ccc(-n3ccnc3)nn12 | -4 | -9.5 | -0.1% | 10 | -1 | 3 | 6%
CC(C)CCN1CCN(Cc2nc3ccccc3s2)CC1CCO (stereo not drawn) | -26 | -4.0 | 0.3% | -7 | · | 2 | 22%
CCCC(CCC)C(=O)NCCN1CCOCC1 | -1 | -0.7 | -0.8% | -44 | 3 | 4 | 12%
O=C(NCc1ccccc1Cl)C1CCN(S(=O)(=O)N2CCCCCC2)CC1 | 0 | 0.3 | 9.2%[38.3 µM] | -7 | 1 | 2 | 16%
O=C(CCS(=O)(=O)c1ccccc1)Nc1nc2ccc(F)cc2s1 | -18 | 5.0 | 4.3% | 21 | -3 | 5 | ·
CCCn1c(C)cc(C(=O)COc2ccc(C)nc2[N+](=O)[O-])c1C | -17 | 1.8 | 4.7% | 3 | -3 | -9 | 7%
CCc1cccc(N(CC(=O)NCc2ccc(F)cc2)C(=O)c2csnn2)c1 | -6 | -3.3 | 0.9% | -1 | 0 | 0 | 21%
COc1ccc(C(C)=O)cc1CSc1nnc(Nc2ccccc2C)s1 | -2 | 4.6 | -1.7% | 11 | 12 | 1 | 11%
CCC(=O)c1c[nH]c(C(=O)NCc2cccs2)c1 | -3 | 0.8 | 3.0% | -1 | 4 | 2 | 24%
Cc1ccccc1NC(=O)Cc1nc(COC(=O)c2ccc(C(F)(F)F)cc2)cs1 | -6 | -2.2 | 7.2% | -11 | · | -5 | ·
CCCCNc1c(-c2ccc(OC)c(SC(C)CC)c2)nc2cnccn12 (stereo not drawn) | 21 | 14 | -0.1% | · | 6 | 33 | ·
O=S(=O)(c1ccc(F)cc1)N1CCCN(Cc2c(F)cccc2F)CC1 | -11 | -1.5 | 0.4% | -6 | 19 | -2 | 9%
CCOC(=O)c1c(C)[nH]c(C)c1S(=O)(=O)N1c2ccccc2CC1C (stereo not drawn) | -10 | -3.1 | -1.9% | 14 | · | -1 | 9%
COc1ccc(N2CCN(CC(O)COC(C)(C)C)CC2)cc1 (stereo not drawn) | -24 | -3.9 | -0.2% | 0 | · | 10 | -19%
O=C(NCCN1C(=O)S/C(=C\c2cccc(Cl)c2Cl)C1=O)C1=COCCO1 | -12 | 0.3 | 4.8% | -20 | -2 | 4 | -3%
O=C1c2cccc([N+](=O)[O-])c2C(=O)N1c1cccnc1 | 4 | -3.5 | -1.1% | 5 | -8 | 7 | 9%
COc1ccccc1/C=N/NC(=O)COCC(=O)N/N=C/c1ccccc1OC | -9 | -3.9 | -0.6% | 6 | -17 | -13 | -12%
O=C(NCC1(O)CCCCC1)C1CCC(=O)N(Cc2cccc(C(F)(F)F)c2)C1 (stereo not drawn) | -5 | 0.1 | 1.5% | 7 | -7 | 2 | -4%
COc1ccc(S(=O)(=O)N2CCN(C(=O)NC3CCCCC3)CC2)cc1 | -6 | -1.4 | 16% | -11 | 0 | 2 | -1%
CNC(=O)COc1coc(CN2CCN(c3ccc(OC)cc3)CC2)cc1=O | -10 | -2.4 | -0.2% | 1 | 5 | 0 | 4%
CCCOc1ccc(/C=N/NC(=O)C2CCCN2S(=O)(=O)c2ccc(Cl)cc2)cc1 (stereo not drawn) | -9 | 2.8 | 13% | -6 | -5 | -15 | 7%
O=C(C1Cc2ccccc2CN1C(=O)c1ccco1)N1CCN(c2ccccc2)CC1 (stereo not drawn) | -8 | -8.0 | -0.9% | 4 | -8 | -2 | ·
O=C(COC(=O)c1cccc([N+](=O)[O-])c1)NC1CCCC1 | -6 | -4.4 | -0.8% | -12 | 2 | -3 | 18%
CCOC(=O)c1sc(NC(=O)CC)nc1C | -2 | -1.0 | 2.2% | 4 | 0 | 5 | 14%
CC(=O)Nc1ccc(NC(=O)CC23CC4CC(CC(C4)C2)C3)cc1 | -6 | 4.2 | 4.8% | -12 | -30 | -19 | 14%
O=C(NCCN1CCOCC1)C1(C(F)(F)F)C/C(=C\Cc2ccccc2)CCCO1 (stereo not drawn) | -14 | -0.6 | 0.5% | · | -2 | 4 | 2%
CCOC(=O)c1c(C)n(C)c2ccc(OC)c([N+](=O)[O-])c12 | -3 | 0.5 | 4.1% | 4 | · | -2 | 3%
COc1ccc(C)cc1NC(=O)Nc1ccncc1 | -22 | -0.5 | 0.9% | -10 | 0 | 10 | -2%
Cc1ccc(CCNC(=O)CCCn2nc(C)c3c(C)n(-c4ccc(C)cc4)nc3c2=O)cc1 | -10 | -1.8 | 2.3%&-0.7% | 0 | -1 | 4 | -5%
COc1cc(/C=C(\C#N)C(=O)N2CCOCC2)ccc1OCc1ccccc1 | 1 | -9.7 | 3.9% | -11 | -1 | -10 | 16%
O=C(O)c1cccc(NC(=S)NC(=O)c2cncc(Br)c2)c1 | -15 | -15 | 0.8% | · | · | -4 | ·
O=C(Nc1ccc(S(=O)(=O)N2CCCC2)cc1)C1CCN(S(=O)(=O)c2ccc(F)cc2)CC1 | 28 | -2.2 | -1.8% | -18 | 6 | 0 | ·
CC(C)(C)OC(=O)N1CCCC(C(=O)Nc2ccc(C(=O)NCc3ccccc3)cc2)C1 (stereo not drawn) | · | -1.5 | 0.0% | · | 2 | 1 | ·
COc1ccc(N(CC(=O)N2CCc3ccccc3C2)S(C)(=O)=O)cc1OC | -6 | -1.8 | -1.1% | 1 | -4 | 3 | 16%
CC1(C)Cc2c(sc(NC(=O)COc3cccc4ccccc34)c2C#N)C(C)(C)N1 | -3 | -2.0 | 0.0% | · | -14 | 4 | -12%
O=C(N/N=C\c1cccc(Cl)c1)c1n[nH]c2c1CCCC2 | -5 | 1.5 | 12% | -5 | -10 | -1 | 4%
Cn1c(=O)c2c(nc(N3CCc4ccccc4C3)n2C)n(C)c1=O | -6 | 3.0 | 3.1% | -8 | ? | ? | -8%
O=C(OCCCN1C(=O)c2ccccc2C1=O)c1ccco1 | 3 | -1.3 | -0.2% | 2 | 3 | -1 | 17%
Cc1cccc(C(C)C)c1NC(=O)C1CN(S(=O)(=O)c2ccccc2)CCN1S(=O)(=O)c1ccccc1 (stereo not drawn) | -10 | -0.5 | 1.9% | 0 | 5 | -4 | 10%
O=c1[nH]c(C2CCN(S(=O)(=O)c3ccccc3)CC2)nc2c1nnn2Cc1cccc(Cl)c1 | -1 | 1.5 | -0.2% | ? | -13 | -15 | -6%
CCc1ccccc1NC(=O)CN1CCN(C(=O)c2cc(C3CC3)nn2-c2ccccc2)CC1 | -14 | -0.2 | -0.4% | · | -3 | -5 | ·
COCCN(CCOC)Cc1cc(=O)oc2cc(OC)ccc12 | -4 | 4.8 | 0.4% | · | 6 | 0 | ·
O=C(C=Cc1cccs1)c1cccs1 | -4 | -1.1 | -2.2% | · | 5 | -2 | ·
COc1ccc(NC(=S)N2CCN(Cc3ccco3)CC2)c(OC)c1 | -13 | -3.6 | 0.1% | -2 | -2 | -6 | 7%
CC(=O)c1c(C)[nH]c(C(=O)CSc2nnc(-c3ccco3)n2Cc2ccccc2)c1C | -15 | 0.8 | -2.7% | -13 | -13 | -9 | -21%
COC(=O)C(C#N)c1nc2ccccc2nc1N1CCCC1 (stereo not drawn) | -1 | -4.4 | 0.3% | -8 | -13 | -2 | -7%
O=C(Nc1nnc(Cc2ccccc2)s1)C1CCN(C(=O)c2ccco2)CC1 | -3 | 2.5 | 1.2% | 1 | -5 | 3 | 50µM*
CCOC(=O)C1(CC2CCCCO2)CCN(Cc2ccccc2-c2ccco2)CC1 (stereo not drawn) | -16 | 0.7 | 12% | -20 | -5 | -4 | 6%
COc1cccc(N2CCN(c3nc(C)c(C)c(=O)[nH]3)CC2)c1 | -1 | 6.2 | 0.6% | -22 | -3 | -1 | 13%
CC(C(=O)O)N1C(=O)/C(=C/c2cccn2C)SC1=S (stereo not drawn) | -19 | -1.4 | 1.1% | 13 | 4 | -6 | 56µM*
COc1cc(N=C2C(=O)N3CCCc4cccc2c43)cc(OC)c1 | -17 | -3.9 | -0.6% | 4 | -76* | 6 | 0%
CN1CCN(Cc2nc3c([nH]2)c(=O)[nH]c(=O)n3C)CC1 | -1 | -0.2 | -1.2% | 30 | 5 | 4 | -25%
O=C(O)CC1S/C(=N\N=C/c2ccccc2O)N(c2ccc(O)cc2)C1=O (stereo not drawn) | 4 | -1.4 | -1.0% | 4 | -18 | 7 | -7%
Cc1cccc(Nc2nc(-c3c(C)nc4ccccn34)cs2)c1 | 10 | 3.1 | · | -3 | 14 | -17 | 50µM*
